PK Bst: alters activity of Bacillus stearothermophilus pyruvate kinase. partly purified Bacillus stearothermophilus pyruvate kinase, luminescence ATP production; ribose 5-phosphate activator present at AC10. Potency, µM. 51,000 tested, 1.2% active; in the data active means potency below about 11 µM; inconclusive means mostly about 12 µM to 25 µM; inactive means weaker than that;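 the screen sought inhibitors and activators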;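 further: potency means the concentration at half of the fitted maximal effect; scaled between full activation by ribose 5 phosphate and full inhibition by luteolin; about four in five hits inhibit and the cells do not say which; series up to 57 µM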
YjeE inh: displaces an ADP probe from E. coli YjeE (TsaE); P0AF67; purified YjeE, fluorescence polarisation of a bound ADP probe; Potency, µM; 71,000 tested, 0.05% active; active = well fitted falling curve; inconclusive = weaker or top-dose-only fall, or a rising curve; inactive = flat or poorly fitted curve;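 further: top concentration of the series not given in the record; excess ADP was the control for the full effect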
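Fluorescence polarization of a BODIPY Texas Red–ADP probe (2 uM) bound to purified YjeE (10 uM) was read after 15 min room-temperature incubation with compounds. Loss of polarization marks inhibitors; ADP serves as titrated control.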
* hit, by the source's call; i = inactive; ? = inconclusive; . = not tested or not shown. An excerpt; count on the stated rates, not on these rows.

PK Bst	YjeE inh	SMILES
>57	i	O=C(COC(=O)C1CC(=O)N(Cc2ccco2)C1)c1ccc(OC(=O)c2ccco2)cc1 (configuration not stated)
>57	i	Cc1ccc2occ(C(c3nnnn3C3CCCC3)N3CCN(C(=O)c4ccco4)CC3)c(=O)c2c1 (configuration not stated)
.	i	Cc1cc(C)n2nc(C(=O)Nc3ccc4c(c3)OCO4)nc2n1
>11.4	i	COc1ccc(S(=O)(=O)Nc2c(C)ccc3nsnc23)cc1OC
.	i	CCCCN(C)C(=O)c1cn(CC)c2ccc(S(=O)(=O)N(C)C)cc2c1=O
>57	i	Cc1nnc(N(C)C(=O)c2cccnc2)s1
>25.6	.	CCOC(=O)C1CCCN(c2nc3ccccc3nc2C(C#N)C(=O)OC(C)COC)C1 (configuration not stated)
>57	i	Cc1nn(-c2ccccc2)c(Cl)c1C(=O)Nc1c(C)n(C)n(-c2ccccc2)c1=O
.	i	N=C(N)c1ccccc1
>25.6	.	Cc1ccc(N2C(=O)c3sc4nnc(C)c(=O)n4c3C2=O)cc1

(cont.)
PK Bst	YjeE inh	SMILES
.	i	Cc1cc2ccccc2c[n+]1CC(O)C[n+]1cc2ccccc2cc1C
>57	i	CC(C)OC(=O)C1C2C=CC3(CN(Cc4cccs4)C(=O)C13)O2 (configuration not stated)
.	i	CCc1cc(C=C(Cl)Cl)oc(=O)c1C
>57	i	Cc1nnc(SCCn2c(N3CCCCC3)nc3c2c(=O)n(C)c(=O)n3C)s1
>25.6	.	CC1(C)CC(=O)C2=C(C1)OC(N)=C(C#N)[C@@]21C(=O)N(CC(N)=O)c2ccccc21
.	i	Cc1cccc(CNc2ncncc2-c2ccccc2CN(C)C)c1
>57	i	O=C(CN1CCN(S(=O)(=O)c2ccc(F)cc2)CC1)Nc1ccccc1F
>57	i	Cc1ccc(-n2c(=O)[nH]cc(C(=O)Nc3ccc4c(c3)OCCO4)c2=O)cc1
.	i	COCCn1c(=O)cnc2cnc(OC)nc21
>57	i	CCCS(=O)(=O)N1CCC(C(=O)NCCCN2CCCC2=O)CC1

(list continues)
PK Bst	YjeE inh	SMILES
>57	i	Cc1cccc(NC(=O)Cn2c(=O)n3nc(CCn4nc(C)cc4C)nc3c3ccccc32)c1
>57	i	O=S(=O)(NCc1ccco1)c1ccc2c(c1)Cc1ccccc1-2
.	i	O=C1CCc2cc(S(=O)(=O)NC(Cc3ccccc3)C(=O)NC3CCCCC3)ccc2N1 (configuration not stated)
>57	i	Cc1[nH]nc2c1C(c1ccccc1)C1=C(CC(C)(C)CC1=O)N2 (configuration not stated)
.	i	CC(Oc1ccc(Cl)cc1Cl)C(=O)NCc1ccncc1 (configuration not stated)
>57	i	CCn1c(=O)n(CC(=O)NCc2ccco2)c(=O)c2ccccc21
>57	i	Cc1ccc(CNC(=O)Cn2c(=O)oc3ccccc32)o1
>57	i	COc1cc(OC)c(C2C(C(=O)Nc3ccc(C)cc3C)=C(C)Nc3ncnn32)cc1OC (configuration not stated)
.	i	COCCn1c(=O)c(-c2cccs2)nc2cnc(Oc3ccc(OC)cc3)nc21
.	i	COCCn1c(=O)c(-c2ccc(Cl)cc2)nc2cnc(Oc3ccc(OC)cc3)nc21

The list goes on:
PK Bst	YjeE inh	SMILES
.	i	COCC(=O)N1CCC2(CC1)CCN(C(c1ccccc1)c1ccccc1)CC2
>57	i	COc1ccc(C2CC(=O)c3cnc(NC(=O)c4ccccc4)nc3C2)c(OC)c1 (configuration not stated)
i	i	Cc1occc1C(=O)Nc1sc2c(c1C(N)=O)CCCCC2
>57	i	Cc1ccnc(NC(=O)CCC(=O)N(CC(=O)NC2CCCCC2)c2cccc(C)c2C)c1
>57	i	CC(=O)c1cnc(N2CCCCC2)nc1C
.	i	Nc1c(S(=O)(=O)c2cccs2)c2nc3ccccc3nc2n1/N=C/c1cccc(O)c1
>57	i	COCCCn1c(SCC(=O)NC(C)(C)C)nnc1-c1ccccc1
>57	i	CCCCCOC(=O)c1cc(=O)[nH]c2ccccc12
>25.6	.	Cc1nc2c(c(=O)n1CC1CCCO1)c1nc3ccccc3nc1n2Cc1ccc2c(c1)OCO2 (configuration not stated)
>57	i	COc1ccc(C(=O)NCCn2cc(SCC(=O)Nc3nnc(C)s3)c3ccccc32)cc1

Continuation.
PK Bst	YjeE inh	SMILES
.	i	Cc1ccc2c(c1)[nH]c1c(=O)n(CCN3CCCCC3)cnc12
.	i	Cn1c(=O)c2c(ncn2CC(=O)N2CCOCC2)n(C)c1=O
?	i	Cc1cc(C)c(OCC(=O)Nc2nnn(C)n2)c(Br)c1
.	i	CC1=C(C(=O)OCc2ccccc2)C(c2ccccc2)NC(=O)N1CCCCCC(=O)O (configuration not stated)
>57	i	CC(=O)c1cc(C#N)c(SCC(=O)OC(C)C)nc1C
.	i	CN(CC(=O)N1CCN(c2ccccn2)CC1)S(=O)(=O)c1ccc2ccccc2c1
.	i	CN1CC[C@@]2(CCCN(S(=O)(=O)c3ccccc3)C2)C1
>57	i	CCN(CC)C(=O)c1cc2cc(Br)ccc2oc1=O
>57	i	COC(=O)c1ccccc1S(=O)(=O)N(Cc1cc2ccc(OC)cc2[nH]c1=O)CC1CCCO1 (configuration not stated)
>57	i	CCOCC(=O)NCc1ccc2c(c1)OCO2

Remaining list, next part.
PK Bst	YjeE inh	SMILES
>57	i	[O-]/[N+](=C\c1ccccc1)[C@@H]1CCCC[C@@H]1/[N+]([O-])=C/c1ccccc1
>57	i	COc1ccc(Cl)cc1Nc1nc(NCCO)nc(N2CCCC2)n1
>57	i	O=C(CN1CCN(S(=O)(=O)c2ccc(F)cc2)CC1)Nc1cccc(C(F)(F)F)c1
>57	i	COCCNC(=O)C(c1ccc(C)o1)N(Cc1cccs1)C(=O)c1snc(C(N)=O)c1N (configuration not stated)
>57	i	CCCc1cc(=O)n2[nH]c(C)c(-c3ccccc3)c2n1
.	i	O=C(O)C=C1C2CC3CC(C2)CC1C3
.	i	CC(=O)N1CCN(CCN=CC2=C(O)CC(c3cccs3)CC2=O)CC1 (configuration not stated)
.	i	CCCC(c1c(C)n(C)n(-c2ccccc2)c1=O)c1c(C)n(C)n(-c2ccccc2)c1=O
.	i	Cc1onc(-c2ccccc2Cl)c1C(=O)OCC(=O)c1ccc2c(c1)OCCO2
.	i	CCSCCOC(=O)C1=C(C)NC(=O)NC1c1cc(OC)ccc1OC (configuration not stated)

New compounds follow.
PK Bst	YjeE inh	SMILES
.	i	COc1ccccc1CNc1ncncc1-c1ccoc1
.	i	CNCCOCC(O)CSc1ccccc1 (configuration not stated)
>57	i	CCOCCCNC(=O)C1CCCCN1S(=O)(=O)c1ccc(F)cc1 (configuration not stated)
>11.4	i	O=S(=O)(CCSc1ccccn1)c1nc2ccccc2s1
>57	i	O=c1cc(N2CCC(Cc3ccccc3)CC2)[nH]c(=O)n1C1CCCCC1
>57	i	Cc1ccc(C(=O)C2=C(O)C(=O)N(CCCN(C)C)C23C(=O)N(C)c2ccccc23)o1 (configuration not stated)
>57	i	Cc1cccc(NC(=O)CSc2nc3c(c(=O)[nH]2)CCC3)c1C
>57	i	CN(c1ccccc1C(=O)O)S(C)(=O)=O
>57	i	CC1(C)Cc2c(sc3c2c(=N)n(Cc2ccco2)c(=O)n3CC(=O)Nc2ccc(Cl)cc2)CO1
>25.6	.	CC1C/C=C/C=C/C=C/C=C/C(O[C@@H]2O[C@H](C)[C@@H](O)[C@H](N)[C@@H]2O)CC2OC(O)(CC(O)CC3OC3/C=C/C(=O)O1)CC(O)C2C(=O)O (some centres not stated)

Further compounds follow.
PK Bst	YjeE inh	SMILES
>57	i	Cc1ccc(OCc2nnc(SCC(=O)Nc3ccc4c(c3)OCCO4)n2Cc2ccco2)cc1
>57	i	COc1cc(NC(=O)C2CCCCC2)c(OC)cc1NC(=O)CN1CCCCC1
>11.4	.	COCCNC(=O)C(C#N)c1nc2ccccc2nc1N1CCN(Cc2ccc3c(c2)OCO3)CC1 (configuration not stated)
>57	i	O=C(NCCN1CCOCC1)c1ccc(-c2ccccc2)cc1
.	i	CCOCCCNC(=O)Cc1cc(=O)[nH]c(=O)[nH]1
.	i	CN(C)c1ncnc2ccc(-c3ccoc3)cc12
>57	i	N#Cc1nc(COc2ccccc2)oc1N1CCN(Cc2ccccc2)CC1
.	i	COc1cccc(Cn2c(=O)c(CCc3ccccc3)nc3cnc(N4CCNCC4)nc32)c1
i	i	COc1cc(C(=O)OCn2nnc3ccccc3c2=O)cc(OC)c1OC
>57	i	Cc1ccc(NC(=O)c2nnn(CC(=O)Nc3ccccc3)c2N)cc1C

The listing continues:
PK Bst	YjeE inh	SMILES
>57	i	CCOC(=O)c1c(C)nc2ncccn12
.	i	Nc1nc(CSc2nc3ccccc3[nH]2)cs1
>57	i	O=C1C2C3C=CC(C3=C3CCCCC3)C2C(=O)N1c1ccccc1 (configuration not stated)
>57	i	CC(C)c1nnc(NC(=O)CSc2nc3ccccc3s2)s1
>57	i	Cc1ccc(N(Cc2cc(=O)[nH]c3ccccc23)C(=O)c2ccco2)cc1
>57	i	COn1cnnc1-c1ccccc1
.	i	CSC1=NCCN1C(=O)C(C)(C)Oc1ccc(Cl)cc1
.	i	Cc1onc(-c2ccccc2)c1C(=O)NC(C)C
>57	i	CCCCc1ccc(CC(=O)O)cc1
.	i	COc1ccc(-c2cc(N)n(S(=O)(=O)Cc3ccccc3)n2)c(OC)c1

Carrying on:
PK Bst	YjeE inh	SMILES
>57	i	CCC(C)NC(=O)c1ccccc1C(=O)NC(C)CC (configuration not stated)
>57	i	CCC(C)NC(=O)C1CC(c2cccc(OC)c2)=NO1 (configuration not stated)
>57	i	CCCCNC(=O)c1ccc(CS(=O)(=O)c2cccc(C(F)(F)F)c2)o1
.	i	Cc1ccc(OCCNC(=O)c2ccco2)cc1C
.	i	O=C(NNC(=O)c1ccncc1)c1ccncc1
.	i	Nc1nc(N)nc(-c2ccccc2)n1
.	i	COc1ccc(N2CCN(C(=O)C(C)(C)Oc3ccc(Cl)cc3)CC2)cc1
>57	i	COC(=O)C1=C(C)OC(N)=C(C#N)C1C1CCCCC1 (configuration not stated)
.	i	Cn1c(COc2ccc(Cl)cc2)nc2ccccc2c1=O
>57	i	COc1ccc(NC(=O)C2CCCN2C(=O)NC2CCCCC2)cc1OC (configuration not stated)

(next part)
PK Bst	YjeE inh	SMILES
.	i	COc1ccc(C2CC(C(F)(F)F)n3nc(C(=O)Nc4ccc5c(c4)OCO5)cc3N2)cc1 (configuration not stated)
>57	i	O=C(COc1ccc(-n2cnnn2)cc1)NC1CCCCC1
.	i	CC(C)C(=O)Nc1ccccc1N1CCN(S(C)(=O)=O)CC1
.	i	N#Cc1ccc(Oc2cccnc2)cc1C#N
.	i	COC(=O)N1CCC2(CC1)CN(C(=O)Nc1ccc(OC)cc1)C2
.	i	O=C(Nc1cccc(F)c1)N1CC[C@@]2(CCCNC2)C1
.	i	CC1(C)S[C@@H]2[C@H](NC(=O)COc3ccccc3)C(=O)N2[C@H]1C(=O)O (tested in a mixture with another compound)
>57	i	O=C(CSc1nnc(-c2ccccc2Cl)n1Cc1ccco1)Nc1ccc2c(c1)OCCO2
>57	i	Cc1occc1C(=O)N1CCN(c2ccc(Cl)c(Cl)c2)CC1
>57	i	CC1CCN(Cc2nc3c(c(=O)n(C)c(=O)n3C)n2CCN2CCOCC2)CC1

Full records, quoted from the list. Order of values: PK Bst, YjeE inh
`COc1ccc(C2CC(C(F)(F)F)n3nc(C(=O)Nc4ccc5c(c4)OCO5)cc3N2)cc1` (configuration not stated) is entered as ., i
`CC1(C)S[C@@H]2[C@H](NC(=O)COc3ccccc3)C(=O)N2[C@H]1C(=O)O` (tested in a mixture with another compound) is entered as ., i
`N#Cc1ccc(Oc2cccnc2)cc1C#N` is entered as ., i
`Cc1occc1C(=O)N1CCN(c2ccc(Cl)c(Cl)c2)CC1` is entered as >57, i
`O=C(Nc1cccc(F)c1)N1CC[C@@]2(CCCNC2)C1` is entered as ., i

New compounds follow.
PK Bst	YjeE inh	SMILES
>57	i	O=C(C(Cc1ccccc1)N1C(=O)C2C3C=CC(C3)C2C1=O)N1CCCCCC1 (configuration not stated)
>57	i	O=C(Cn1c(=O)oc2ccccc21)Nc1ccc(S(=O)(=O)N2CCCCC2)cc1
1.16*	i	COc1ccc(OCc2cccc(C(=O)O)c2)cc1
.	i	CC(C)Cn1c(=O)c(C2=NS(=O)(=O)c3ccccc3N2)c(O)c2ccccc21
>57	i	CC1=C(C(=O)Nc2ccccc2C)C2(CCCC2)C(C(N)=O)C(=O)N1 (configuration not stated)
>57	i	CC(C)N(C)C1CCN(C(=O)Nc2ccc(Cl)cc2)CC1
>25.6	.	Cc1cc(C)n(C(=O)CNC(=O)c2ccc3c(c2)OCCO3)n1
>57	i	COc1ccccc1OCC(=O)N(Cc1nc(-c2ccccc2)no1)C1CCCCC1
>57	i	CCOC(=O)N1CCC(c2[nH][nH]c(=O)c2C)CC1
.	i	COc1ccc(-c2[nH]ncc2-c2cnn(-c3ccccc3)c2)c(O)c1

Next part:
PK Bst	YjeE inh	SMILES
>57	i	C=CCn1c(=O)[nH]c2cc(C(=O)N3CCN(c4cc(C)ccc4C)CC3)ccc2c1=O
>57	i	Cc1nnc(SCC(=O)NCC2CCCO2)n1-c1ccccc1 (configuration not stated)
>57	i	CCCc1cc(=O)[nH]c(SCC(=O)c2cc(C)n(C(C)COC)c2C)n1 (configuration not stated)
>57	i	Cc1ccc(C(=O)N2CCCC2)cc1S(=O)(=O)Nc1ccccc1
.	i	CC(C)[C@@H](CC(=O)N[C@@H]1CCCC[C@H]1C(=O)N[C@H](CC(=O)N[C@@H](CCC(=O)O)CC(=O)O)Cc1c[nH]c2ccccc12)NC(=O)C[C@H](Cc1ccccc1)NC(=O)[C@@H]1CCCC[C@H]1N
